Vaccinia inh: blocks a specific stage of Vaccinia orthopoxvirus infection, primary screen, cell-based, single point; Vaccinia-infected cells, mCherry/Venus stage reporter fluorescence; stronger effect = lower value; some inactives read as strong as hits; activity change (mCherry), % (no concentration beside the values); 89,000 tested, 0.01% active;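 active = mCherry past -33% and 40 or more points under the early reporter, replicates agreeing; inconclusive = past -33% without that gap or agreement; tested in A549 cells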;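 also: scaled between vehicle wells and reference inhibitor wells; 23 nL library stock went into each well; one replicate is shown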
Vaccinia inh Venus: recorded beside Vaccinia inh, whose call it bears; activity change (Venus), %; measured here: Venus reporter, other viral stage;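 negative = less Venus signal; first of two replicates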
An asterisk follows results filed as active; ? = inconclusive; / = not tested or not shown.

SMILES | Vaccinia inh | Vaccinia inh Venus
CCC(=O)N1[C@H](C#N)[C@@H](c2ccccc2-c2cccc(C)c2)[C@@H]1CO | 5 | 1
CCNC(=O)C[C@@H]1CC[C@H]2[C@@H](COc3ccc(NC(=O)Nc4cccc(Cl)c4)cc3C(=O)N2C)O1 | 1 | -2
COc1ccc(CN(C)C[C@@H]2Oc3c(NC(=O)Nc4ccc5c(c4)OCO5)cccc3C(=O)N([C@H](C)CO)C[C@@H]2C)cc1 | -24 | -17
O=C(C[C@H]1CC[C@@H](NC(=O)Nc2ccc(C(F)(F)F)cc2)[C@@H](CO)O1)NCCN1CCCC1 | -1 | -7
C[C@H]1CN([C@@H](C)CO)C(=O)Cc2cc(N(C)C)ccc2O[C@@H]1CN(C)Cc1ccc2c(c1)OCO2 | 3 | 5
CCCC#Cc1cnc2c(c1)C(=O)N([C@@H](C)CO)C[C@H](C)[C@H](CN(C)C(=O)C1CCOCC1)O2 | 21 | 18
C[C@H]1CN([C@@H](C)CO)C(=O)c2ccccc2-c2ccccc2CO[C@H]1CN(C)Cc1ccccc1C(F)(F)F | ? | /
C[C@@H]1CN([C@H](C)CO)C(=O)c2ccccc2-c2ccccc2CO[C@H]1CN(C)C(=O)Nc1ccc(F)cc1 | 19 | 4
C[C@H]1CN([C@@H](C)CO)C(=O)Cc2cc(NC(=O)Nc3cccc4ccccc34)ccc2O[C@@H]1CN(C)Cc1ccccc1 | ? | /
CC(C)CC#Cc1ccc2c(c1)O[C@@H](CN(C)CC1CCOCC1)[C@@H](C)CN([C@H](C)CO)S2(=O)=O | ? | /
CO[C@H](CN(C)C(=O)C1CCOCC1)[C@@H](C)CN(C(=O)Nc1ccc(C(F)(F)F)cc1)[C@H](C)CO | 8 | 6
Cc1ccc(S(=O)(=O)N(C)C[C@H]2Oc3ccc(NC(=O)NC(C)C)cc3CC(=O)N([C@H](C)CO)C[C@H]2C)cc1 | 7 | 3
Cc1noc(C)c1NC(=O)N(C)C[C@@H]1Oc2c(NC(=O)Nc3ccc(C(F)(F)F)cc3)cccc2C(=O)N([C@@H](C)CO)C[C@@H]1C | 3 | 1
NCCCCCCNC(=O)[C@@H]1C[C@@H]2C(=O)NCC(=O)N2[C@@H]1c1ccc(O)cc1 | 19 | 4
Cc1noc(C)c1C(=O)N(C)C[C@H]1OCc2ccccc2-c2ccccc2C(=O)N([C@H](C)CO)C[C@@H]1C | 13 | -1
CCCNC(=O)N1[C@H](CNC(=O)CC)[C@@H](c2ccc(C3=CCCC3)cc2)[C@@H]1CO | -7 | -10
C[C@H]1CCCCO[C@H](CN(C)S(=O)(=O)c2ccccc2)[C@@H](C)CN([C@@H](C)CO)C(=O)c2cc(NC(=O)Nc3ccc4c(c3)OCO4)ccc2O1 | 17 | 13
Cc1noc(C)c1S(=O)(=O)Nc1cccc2c1O[C@@H](CN(C)Cc1ccc(Oc3ccccc3)cc1)[C@@H](C)CN([C@H](C)CO)C2=O | ? | /
O=C(c1ccc2c(c1)OCO2)N1CC[C@@H]2[C@@H](CO)Nc3ccc(-c4ccccc4)cc3[C@@H]21 | 2 | 6
Cc1noc(C)c1NC(=O)Nc1ccc2c(c1)C(=O)N([C@H](C)CO)C[C@H](C)[C@H](CN(C)S(C)(=O)=O)O2 | 9 | 3
C/C=C/c1ccc([C@@H]2[C@@H](CO)N(c3nc(CC)cs3)[C@@H]2CNC(C)C)cc1 | ? | /
COc1ccc2c3c([nH]c2c1)[C@H](CO)N(C(=O)NC(C)C)CC31CCN(C(=O)C2CCCC2)CC1 | 14 | 7
CCCNC(=O)N1[C@@H]2c3ccc(-c4cccc(C(=O)N(C)C)c4)c(=O)n3C[C@H]1[C@H](CO)[C@H]2C(=O)O | 22 | 18
CO[C@@H]1CN(C)C(=O)c2cc(NC(=O)C3CCOCC3)ccc2OC[C@@H](C)N(CC2CC2)C[C@H]1C | 6 | 8

Part of the list above, in markdown.
| structure | Vaccinia inh | Vaccinia inh Venus |
| --- | --- | --- |
| NCCCCCCNC(=O)[C@@H]1C[C@@H]2C(=O)NCC(=O)N2[C@@H]1c1ccc(O)cc1 | 19 | 4 |
| Cc1noc(C)c1C(=O)N(C)C[C@H]1OCc2ccccc2-c2ccccc2C(=O)N([C@H](C)CO)C[C@@H]1C | 13 | -1 |

Later entries
SMILES | Vaccinia inh | Vaccinia inh Venus
C[C@H](CO)N1C[C@H](C)[C@H](CN(C)S(=O)(=O)c2cccs2)Oc2c(NC(=O)Nc3ccc(C(F)(F)F)cc3)cccc2C1=O | ? | /
O=C(C[C@H]1CC[C@H]2[C@@H](COC[C@@H](O)CN2Cc2cc(F)ccc2F)O1)NCc1ccc(F)cc1 | -9 | -4
COc1ccc(S(=O)(=O)N[C@@H]2CC[C@H](CCNC(=O)c3ccccc3F)O[C@H]2CO)cc1 | -14 | -13
O=C(CN1CCOCC1)N1CCCCN2[C@H](CO)[C@H](c3ccc(Br)cc3)[C@H]2C1 | 28 | 12
COc1ccc2c3c(n(C)c2c1)[C@@H](CO)NCC31CCN(CC2CCCC2)CC1 | ? | /
COc1ccc(-c2ccc3c(c2)O[C@H](CN(C)C)[C@@H](C)CN([C@@H](C)CO)S3(=O)=O)cc1 | -1 | 1
C[C@@H]1CN([C@H](C)CO)S(=O)(=O)c2ccc(/C=C/c3ccccc3)cc2O[C@H]1CN(C)C(=O)Nc1cc(F)ccc1F | ? | /
COc1ccccc1NC(=O)N1CC(=O)N2[C@H](CO)[C@H](c3ccc(-c4ccc(F)cc4)cc3)[C@@H]2C1 | -9 | -11
CNC[C@H]1Oc2c(NC(=O)c3cnccn3)cccc2C(=O)N([C@@H](C)CO)C[C@@H]1C | 7 | 3
C[C@H]1CCCCO[C@H](CN(C)C(=O)Nc2ccc(F)cc2)[C@@H](C)CN([C@@H](C)CO)C(=O)c2cc(NC(=O)Cc3ccccc3)ccc2O1 | -22 | -11
CCC(=O)N1CC2(CN(Cc3ccccc3Cl)C2)c2c([nH]c3cc(OC)ccc23)[C@@H]1CO | ? | /
C[C@@H]1CN([C@@H](C)CO)C(=O)c2cc(NC(=O)Nc3ccccc3)ccc2O[C@@H](C)CCCCO[C@H]1CN(C)CC1CCCCC1 | ? | /
N#C[C@H]1[C@@H](c2ccccc2C2=CCCC2)[C@@H](CO)N1S(=O)(=O)c1ccccc1 | 8 | 1
CN1CCN(C(=O)C[C@H]2CC[C@@H]3[C@@H](COc4ccc(NC(=O)C5CCCCC5)cc4C(=O)N3C)O2)CC1 | -3 | -9
CN(C)CC(=O)Nc1ccc2c(c1)[C@@H]1C[C@H](CC(=O)NCc3cc(F)ccc3F)O[C@@H](CO)[C@@H]1O2 | -1 | 9
CCCC(=O)Nc1ccc2c(c1)C(=O)N(C)[C@H]1CC[C@@H](CC(=O)NCCCN(C)C)O[C@H]1CO2 | 7 | 7
COc1ccc(CN(C)C[C@H]2OCCCC[C@H](C)Oc3ccc(NC(=O)C4CCCCC4)cc3C(=O)N([C@H](C)CO)C[C@@H]2C)cc1 | ? | /
CN1CCN(C(=O)C[C@@H]2CC[C@H]3[C@@H](COC[C@H](O)CN3C(=O)Nc3ccc(Cl)cc3)O2)CC1 | 11 | 3
COc1ccc2c3c([nH]c2c1)[C@H](CO)N(C(=O)Nc1ccccc1F)CC31CCN(C(=O)C2CC2)CC1 | 2 | 1
CNC[C@@H]1Oc2c(NC(=O)c3ccncc3)cccc2C(=O)N([C@H](C)CO)C[C@@H]1C | 8 | 6
C[C@H](CO)N1C[C@H](C)[C@H](CN(C)S(=O)(=O)c2ccc(Cl)cc2)Oc2ccc(NC(=O)CCCCCC(=O)Nc3ccccc3N)cc2C1=O | 12 | 16
Cc1noc(C)c1NC(=O)Nc1ccc2c(c1)CC(=O)N([C@H](C)CO)C[C@H](C)[C@H](CN(C)S(=O)(=O)c1cccs1)O2 | 14 | 2
C[C@H](CO)N1C[C@H](C)[C@@H](CN(C)C(=O)Nc2ccc(C(F)(F)F)cc2)Oc2ccc(NS(=O)(=O)c3cccs3)cc2CC1=O | 4 | -1
CC(C)[C@H](C)NC(=O)N(C)C[C@@H]1OCc2ccccc2-c2c(n(C)c3ccccc23)C(=O)N([C@@H](C)CO)C[C@H]1C | 6 | 2

Whole records, looked up by structure:
Record of C[C@H](CO)N1C[C@H](C)[C@H](CN(C)S(=O)(=O)c2ccc(Cl)cc2)Oc2ccc(NC(=O)CCCCCC(=O)Nc3ccccc3N)cc2C1=O = Vaccinia inh = 12; Vaccinia inh Venus = 16
Record of CN1CCN(C(=O)C[C@@H]2CC[C@H]3[C@@H](COC[C@H](O)CN3C(=O)Nc3ccc(Cl)cc3)O2)CC1 = Vaccinia inh = 11; Vaccinia inh Venus = 3
Record of CCCC(=O)Nc1ccc2c(c1)C(=O)N(C)[C@H]1CC[C@@H](CC(=O)NCCCN(C)C)O[C@H]1CO2 = Vaccinia inh = 7; Vaccinia inh Venus = 7

(list continues)
SMILES | Vaccinia inh | Vaccinia inh Venus
CN(C)CC#Cc1ccc([C@@H]2[C@H]3CN(C(=O)C4CCCC4)CCCCN3[C@H]2CO)cc1 | 7 | -1
O=C(NCC[C@@H]1CC[C@@H](NS(=O)(=O)Cc2ccccc2)[C@@H](CO)O1)C1CCC1 | -2 | 2
C[C@@H]1CN([C@H](C)CO)C(=O)c2cc(C3=CCCC3)cnc2O[C@H]1CN(C)C(=O)Nc1ccccc1 | 14 | 14
Cc1noc(C)c1NC(=O)N(C)C[C@@H]1Oc2ccc(NS(=O)(=O)c3ccc(Cl)cc3)cc2CC(=O)N([C@@H](C)CO)C[C@H]1C | 9 | -1
CO[C@H]1CN(C)C(=O)c2ccc(NC(=O)Cc3ccccc3)cc2OC[C@H](C)N(C)C[C@@H]1C | -4 | -2
O=C(C[C@H]1CC[C@H](NS(=O)(=O)c2ccccc2)[C@H](CO)O1)N1CCN(c2ccccc2)CC1 | -5 | 6
O=C(C[C@@H]1CC[C@@H](NC(=O)Nc2cc(F)ccc2F)[C@@H](CO)O1)NCc1ccncn1 | 14 | 14
N#C[C@@H]1[C@H](c2ccccc2-c2cccc(F)c2)[C@@H](CO)N1C(=O)C1CCCC1 | -15 | -5
Cc1ccccc1S(=O)(=O)N[C@H]1CC[C@H](CCn2cc(-c3ccccc3)nn2)O[C@H]1CO | -24 | -17
CCCNC(=O)C[C@@H]1CC[C@H]2NC[C@H](O)COC[C@@H]2O1 | 3 | 3
CCC(=O)N1C[C@H](C)[C@H](OC)CN(C)C(=O)c2cc(NC(=O)C3CCOCC3)ccc2OC[C@@H]1C | 28 | 19
CCC(=O)N(C)C[C@@H]1Oc2ncc(C#Cc3ccncc3)cc2C(=O)N([C@H](C)CO)C[C@@H]1C | 8 | 6
O=C(NC[C@H]1[C@@H](c2ccccc2)[C@H](CO)N1C(=O)C1CC1)NC1CCCC1 | 0 | -2
CN1[C@@H]2c3cccc(=O)n3C[C@@H]2[C@@H](CO)[C@@H]1C(=O)NCC1CCCCC1 | -3 | 0
COc1ccccc1CN1[C@H](CO)[C@@H](c2ccccc2)C12CN(C(C)=O)C2 | 5 | 10
Cc1noc(C)c1NC(=O)N(C)C[C@H]1Oc2ncc(/C=C/c3ccccc3)cc2C(=O)N([C@H](C)CO)C[C@@H]1C | ? | /
COc1ccccc1NC(=O)N1CC(=O)N2[C@H](CO)[C@@H](c3ccc(-c4ccc(C)cc4)cc3)[C@@H]2C1 | ? | /
Cc1nn(C)cc1NC(=O)C[C@@H]1CC[C@@H]2[C@H](COc3ccc(NC(=O)Nc4cccc(Cl)c4)cc3C(=O)N2C)O1 | 18 | 5
C[C@@H]1CN([C@@H](C)CO)C(=O)c2cccc(NC(=O)c3ccc(-c4nccs4)cc3)c2O[C@@H]1CN(C)Cc1ccncc1 | -1 | -3
CNC[C@H]1OCCCC[C@@H](C)Oc2ccc(N(C)C)cc2C(=O)N([C@H](C)CO)C[C@H]1C | 2 | 9
CO[C@@H]1CN(C)C(=O)c2ccc(NC(=O)Nc3cc(F)ccc3F)cc2OC[C@H](C)N(C(=O)c2ccccn2)C[C@@H]1C | 11 | 6
C[C@H](CO)N1C[C@H](C)[C@@H](CN(C)C(=O)c2cnccn2)Oc2ncc(-c3ccccc3F)cc2C1=O | 13 | -2
C[C@@H]1CN([C@@H](C)CO)C(=O)c2cccc(NC(=O)c3cnccn3)c2O[C@@H]1CN(C)Cc1ccc(Cl)c(Cl)c1 | -17 | -15
COCC(=O)Nc1ccc2c(c1)C(=O)N(C)[C@H]1CC[C@H](CC(=O)NCC3CCCCC3)O[C@H]1CO2 | 4 | 7
CO[C@@H]1CN(C)C(=O)c2ccc(NC(=O)c3ccc(F)cc3)cc2OC[C@@H](C)NC[C@@H]1C | -10 | 13
C[C@@H]1CN([C@H](C)CO)C(=O)c2cc(NS(=O)(=O)c3cccs3)ccc2O[C@@H]1CN(C)Cc1ccc(-c2ccccc2)cc1 | ? | /
COc1ccc2c3c(n(C)c2c1)[C@@H](CO)N(C(=O)C1CCCC1)CC31CCN(CC2CCCC2)CC1 | -32 | -24
C[C@H]1CN([C@@H](C)CO)C(=O)c2cc(NC(=O)NC3CCCCC3)ccc2O[C@H]1CN(C)Cc1ccc2c(c1)OCO2 | -9 | -9
CCCNC(=O)Nc1ccc2c(c1)OC[C@@H](C)N(C(=O)C1CCCCC1)C[C@@H](C)[C@@H](OC)CN(C)C2=O | 4 | 5
C[C@@H]1CCCCO[C@H](CN(C)S(=O)(=O)c2ccc(F)cc2)[C@H](C)CN([C@@H](C)CO)C(=O)c2cc(N(C)C)ccc2O1 | -23 | -21
COc1ccc(CN(C)C[C@@H]2Oc3ccc(NC(=O)Cc4cn(C)c5ccccc45)cc3CC(=O)N([C@@H](C)CO)C[C@@H]2C)cc1 | -22 | -12

Screens from PubChem BioAssay.

An excerpt. The share of hits here may be higher or lower than overall.
